# Bioassay records deposited in PubChem BioAssay by Center for Chemical Genomics, University of Michigan.
# CDC25B CDK2 inh: human CDC25B-CDK2/CyclinA binding inhibition. HTRF CDC25B-CDK2/CyclinA binding, anti-His/anti-Flag; active compounds read high. P30305+P24941. actives 0.72% (n = 94,000). z-score (test concentration not listed);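 note: score is relative to mean and SD of negative controls; strong numbers were not always called active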
# HIV TAR-Tat: HIV-1 TAR-Tat binding disruption; z-score (test concentration not listed); HIV-1 TAR RNA, Tat peptide displacement FRET; active compounds read high; actives 0.6% (n = 100,000); AID 1259389;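 note: score is relative to mean and SD of negative controls; some compounds called inactive have numbers as strong as hits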
# * hit, by the source's call; . = no result given; & = joins results of further samples.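 Rule for the calls: active = z-score from 3 up in half or more of its runs; inactive = the rest.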
SMILES	CDC25B CDK2 inh	HIV TAR-Tat
COc1ccc(C2=NOC(C(=O)NCC3CCCO3)C2)cc1 (stereo not drawn)	-0.48	0.27
CN(C(=O)C1CCCN(c2ncnc3c2nc2n3CCCCC2)C1)c1ccc(F)cc1 (stereo not drawn)	.	-0.24
COc1ccc(N(C)c2ncnc3onc(-c4ccc(Cl)cc4)c23)c(OC)c1	.	0.81
C=CCc1ccc(OCCOCCOc2ccccc2C=O)c(OC)c1	1.15	.
COCC(=O)Nc1nc2nc(C)cc(C)n2n1	-1.46	1.77
CN1CCC[C@@H]1Cc1c[nH]c2ccc(CCS(=O)(=O)c3ccccc3)cc12	0.57	.
CC1=C(c2cccc(Br)c2)S(=O)(=O)NC1=NCCC1=CCCCC1	-6.77	0.46
COc1ccccc1NS(=O)(=O)c1c(C)nc2sc3ccccc3n2c1=O	.	0.73
COc1ccc(CCNc2oc(COc3ccc(F)cc3)nc2C#N)cc1OC	-0.4	-1.31
O=c1c(SCc2cccc(F)c2)nccn1-c1ccc(F)cc1	.	-0.6
N#Cc1ccccc1Cn1ccc(=NCc2ccccc2)cc1	-2.14	.
COc1cccc(N2C(=O)N(c3ccc(F)cc3)C3CS(=O)(=O)CC32)c1 (stereo not drawn)	-2.09	1.98
COc1ccc(OC)c(CN2CCc3nc(N4CCN(c5ccccc5)CC4)ncc3C2)c1	.	-0.61
CCOc1ccc(-c2nc(SCC(=O)NCC3CCCO3)n3[nH]c(=O)cc3n2)cc1 (stereo not drawn)	.	0.99
O=C(Nc1nc2ccc(S(=O)(=O)N3CCOCC3)cc2s1)c1ccc2ccccc2n1	.	-0.25
Cc1c(C(=O)Nc2nccs2)sc2nc[nH]c(=O)c12	.	0.3
CCCCCCSc1nc2n(n1)C(c1ccc(OC)c(OC)c1)C1=C(CCCC1=O)N2 (stereo not drawn)	0	-0.37
CCCN1CCN(CCCNc2ncnc3onc(-c4ccc(F)cc4)c23)CC1	.	0.7
CCCNc1nc(Nc2ccc(OC)cc2)c2cnn(C)c2n1	.	1.35
CC(C)NC(=O)COCc1cc(-c2ccco2)on1	.	0.92

# The closing five compounds of the section before open the next one.
SMILES	CDC25B CDK2 inh	HIV TAR-Tat
Cc1c(C(=O)Nc2nccs2)sc2nc[nH]c(=O)c12	.	0.3
CCCCCCSc1nc2n(n1)C(c1ccc(OC)c(OC)c1)C1=C(CCCC1=O)N2 (stereo not drawn)	0	-0.37
CCCN1CCN(CCCNc2ncnc3onc(-c4ccc(F)cc4)c23)CC1	.	0.7
CCCNc1nc(Nc2ccc(OC)cc2)c2cnn(C)c2n1	.	1.35
CC(C)NC(=O)COCc1cc(-c2ccco2)on1	.	0.92
CCCCCC1OCC2(CO1)C(C)C=C(C)CC2C (stereo not drawn)	-0.82	.
CCOC(=O)c1c(-c2ccc(C)cc2)csc1NC(=O)c1cc(=O)c2ccc(C)cc2o1	-1.28	-0.33
Cc1c(Cl)cccc1Nc1nc(N)nc(CSc2ncccn2)n1	-1.45	0.48
COCc1cc(C)nc(OCC2=NN(C(C)=O)C(c3cccc(OC)c3)O2)c1C#N (stereo not drawn)	.	1.96
CN1CCN(c2ccc(CNC(=O)C3=Cc4ccccc4OC3)cc2)CC1	-1.06	.
CC(C)NC(=O)Cn1c(=O)n(CC2CCC(C(=O)NCc3ccco3)CC2)c(=O)c2sccc21 (stereo not drawn)	.	-0.12
Cc1ncc([N+](=O)[O-])n1Cc1ccc(F)cc1	-1.38	-0.46
Cc1ccccc1NC(=O)NC(C)c1c(-n2cccc2)sc(C)c1C (stereo not drawn)	-2.27	0.22
CCc1ccc2c(-c3cccc(Cl)c3)nc(=O)n(CC)c2n1	0.11	.
CCN1CCN(c2ncnc3c2oc2nc4c(cc23)COC(C)(C)C4)CC1	.	-1.01
Fc1cccc(CSc2ccc(-c3cccnc3)nn2)c1	.	-0.56
Cc1cc2nc(-c3cc4cc(Cl)cc(Cl)c4oc3=O)[nH]c2cc1C	0.48	.
O=C(O)C1CC2CC1CCC2O (stereo not drawn)	2.07	.
O=S1(=O)c2ccccc2NC(c2cccc(Br)c2)N1Cc1ccccc1 (stereo not drawn)	-1.25	.
Cc1oc2ncn3nc(COc4cccc(Cl)c4)nc3c2c1C	.	1.6
COc1ccc2c(c1)C=C(C(=O)Nc1ncc(Cc3ccc(Br)cc3)s1)C=CO2	-0.03	-1.87
O=C(CSc1nc2c(c(=O)[nH]1)CCC2)Nc1ccc(Br)cc1	0.79	1.54
Fc1ccc(-c2csc(-c3ccccn3)n2)cc1	0.11	2.06
CN(CC(=O)N1CCCC1)S(=O)(=O)c1ccc2c(c1)c(=O)n(C)c(=O)n2C	-1.61	.
CCC(=O)Oc1ccc(-n2cnnn2)cc1	-0.65	-0.37
CN(C)/C=N/NC(=O)COc1ccc(SC(F)(F)F)cc1	-0.86	.
COc1cc(/C=N/NC(=O)CC(=O)NC(C)C)cc(OC)c1OC	-0.03	.
CCOC(=O)c1c(C)[nH]c(CCC(=O)NCc2c(C)nn(C)c2C)c1C	.	-0.04
COC(=O)[C@@H]1OC(=O)C2OC23[C@@]1(C)CCC1[C@@]2(C)CCC(=O)C(C)(C)C2C[C@@H](OC(C)=O)[C@]13C (stereo partly drawn)	.	1.73
O=C(c1cnn(-c2cccc(F)c2)c1-n1cccc1)N1CCc2ccccc21	.	0.81
COCCNc1nc2c(S(=O)(=O)c3c(C)cc(C)cc3C)nnn2c2ccccc12	-1.59	1.19
Cc1cccc(N2CCN([C@H]3CS(=O)(=O)C[C@@H]3S(=O)(=O)c3cccs3)CC2)c1	-1.55	-0.44
O=C(O)COCC(=O)Nc1ccccn1	-0.69	.
CC(C)CN(CC(C)C)S(=O)(=O)c1ccc2c(c1)NC(=O)CS2	.	-1.95
COC(=O)c1cc(I)c(OC(C)=O)c(I)c1	2.07	.
COc1ccc(C2C(C(=O)OC(C)C)=C(C)Nc3ncnn32)c(OC)c1 (stereo not drawn)	-1.35	1.27
CCOC(=O)c1c(C)[nH]c(C)c1S(=O)(=O)NCC(=O)NCc1cccs1	.	0.55
CCOC(=O)C1CCC(CNC(=O)N2CCCC2c2ccco2)CC1 (stereo not drawn)	-2.17	0.87
CC(C)CNC(=O)N1CCCC1c1ccco1 (stereo not drawn)	-2.5	0.83
O=C(Nc1ccccc1)NN1CC(=O)N(c2ccc(Cl)cc2)CC1=O	-0.86	.
CCCNC(=O)NCc1c(C)nn(C)c1C	.	0.88
CCn1c(SCC(C)O)nc2ccccc21 (stereo not drawn)	-0.78	0.87
CCCCSC1=C(C#N)C(=O)NC(c2ccc(OC)cc2OC)S1 (stereo not drawn)	-1.68	-0.11
Cc1ccccc1N1C(=O)N(c2ccccc2)C2CS(=O)(=O)CC21 (stereo not drawn)	-2.24	-0.75
CCOC(=O)c1ccc(NC(=O)CCCN2CCN(Cc3ccccc3)CC2)cc1	-0.78	.
O=C(CCS(=O)(=O)c1ccc2c(c1)CCN2C(=O)C1CC1)NCCc1ccc(Cl)cc1	.	1.1
CSc1nc(-c2ccco2)nn1C(C)=O	-1.03	0.03
CC(=O)Nc1c2n(c3ccc(F)cc13)CC(C)(C(=O)NC1CCCCC1)N(C(C)C)C2=O (stereo not drawn)	.	17.8*
O=C(Cc1c(C(=O)O)[nH]c2ccc(Cl)cc12)NCC1COc2ccccc2O1 (stereo not drawn)	-1.34	.
CC1(C(=O)O)Sc2[nH]c(=O)sc2C2c3ccccc3OC(=O)C21 (stereo not drawn)	-0.96	.
COc1ccc(Cl)cc1NS(=O)(=O)c1ccc2[nH]c(=O)c(=O)[nH]c2c1	-2.06	0.98
COc1ccc(-c2noc(-c3nnn(-c4cccc(OC)c4)c3N)n2)cc1	-0.5	0.58
COc1ccc(S(=O)(=O)N2CCC(NC(=O)N3CCOCC3)CC2)cc1	-1.61	0.68
CCc1cccc(-n2nnc(-c3nc(-c4ccc(F)cc4)no3)c2N)c1	.	1.15
Nc1cc(-c2nc3ccccc3[nH]2)n[nH]c1=O	0.11	1.1

# (more compounds)
SMILES	CDC25B CDK2 inh	HIV TAR-Tat
CCCCN(C)c1sc(S(C)(=O)=O)nc1S(=O)(=O)c1ccc(C)cc1	-3.32	1.5
CC(C)Oc1ccc(OCCn2c(S(=O)(=O)O)nc3c(N)ncnc32)cc1	0.7	.
CN(CC(=O)NCc1ccco1)S(=O)(=O)c1ccc2[nH]c(=O)ccc2c1	.	0.4
O=C1c2cccnc2C(=O)N1Cc1ccc(S(=O)(=O)N2CCc3ccccc32)s1	.	1.86
COc1ccc(-n2c(=O)[nH]c(=O)c3sc(NC(=O)Nc4cccc(Cl)c4)nc32)cc1	1.45	1.11
CCOC(=O)c1c(N)sc(C(N)=O)c1C	-2.45	-0.18
Cc1c(C(=O)NCC2CCCO2)oc2ccc(S(=O)(=O)N3CCOCC3)cc12 (stereo not drawn)	-1.08	.
CS(=O)(=O)Cc1nnc(-c2cccc([N+](=O)[O-])c2)o1	-1.64	.
NC(=O)C1CCN(C(=O)c2cc3c(s2)-c2ccccc2OC3)CC1	-0.36	-1.31
CCCN1CCN(CCCNC(=O)Cn2nc(CC)n3c(cc4sccc43)c2=O)CC1	-0.12	-0.13
CCOCC(=O)Nc1c(C(=O)N2CCN(C(=O)c3ccco3)CC2)oc2ccccc12	.	2.36
CC1CCCCN1C(=O)CN1CCSc2ccccc21 (stereo not drawn)	.	-0.3
O=c1c2ccccc2nc2n1CCN2CCOc1ccccc1	-1.57	-0.86
COc1cc(NC(=O)CCc2nnc3ccc(N4CCCC4)nn23)cc(OC)c1	.	1.25
CC(C)Sc1ncc(Cl)c(C(=O)N(Cc2ccc(F)cc2)C2CCS(=O)(=O)C2)n1 (stereo not drawn)	-0.18	0.62
CCCc1ccc(S(=O)(=O)N2CCN(S(=O)(=O)c3ccc4c(ccn4CCC)c3)CC2)cc1	0.79	1.03
O=C1N(Cc2ccccc2Cl)c2ccccc2S(=O)(=O)N1c1ccc(F)cc1	.	0.02
CCc1cc(C(=O)Cc2nc3ccccc3n2C)c(O)cc1O	-0.7	1.04
COc1ccc(C2N(c3cc(Cl)ccc3OC)C(=O)C3CCCN32)cc1 (stereo not drawn)	0.64	0.48
CCS(=O)(=O)NCc1c(C)nn(C)c1C	.	0.27
NC(=O)c1nnn(-c2cccnc2)c1N	-1.89	1.04
O=C(Cn1cnc(S(=O)(=O)N2CCOCC2)c1)NCCC1=CCCCC1	.	0.19
Cc1ccc2scc(N(C)Cc3ccccc3)c(=O)c2c1	.	0.58
CN1CCc2c(sc3c2C(=O)NC(c2ccc(-c4ccccc4Cl)o2)N3)C1 (stereo not drawn)	-2.12	0.44
NC1=NC(c2ccccc2)N2C(=N1)Sc1ccccc12 (stereo not drawn)	1.4	-0.54
Cn1c(=O)n(C)c2cc(C3C(C#N)=C(N)Oc4c3ccc3ccccc43)ccc21 (stereo not drawn)	5.26	-1.23
CCC(O)c1nc2ccccc2n1CCCOc1ccc(OC)cc1 (stereo not drawn)	-0.31	-0.8
O=c1c(O)c(N2CCN(c3ccccc3)CC2)c1=O	.	-0.11
CCOC(=O)COc1ccc2c(=O)c(Oc3cccc(C)c3)c(C(F)(F)F)oc2c1	-1.19	2.39
Cc1ccc(-c2cncnc2NC(=O)c2ccccc2)cc1	-1.03	.
Cc1cc(=O)n(C)c(=O)n1CCCCO	-1.54	1.13
CC(C)CN(CC(C)C)c1nnc(NC(=O)NCc2ccco2)s1	-0.91	2.86
Cc1ccc(-c2cc(C(=O)N(Cc3sccc3C)C3CCS(=O)(=O)C3)no2)cc1 (stereo not drawn)	-1.29	0.64
COc1ccccc1NS(=O)(=O)c1ccc(CN2C(=O)c3cccnc3C2=O)s1	.	0.24
Cc1nc2ccc(S(=O)(=O)NC3CCCC3)cc2o1	.	1.83
CCCCN(CC)CCNC(=O)C1CCCN(c2ncnc3c2nc2n3CCCCC2)C1 (stereo not drawn)	.	0.53
CN(c1ncnc2onc(-c3ccc(F)cc3)c12)C1CCCCC1	.	0.37
O=C(O)c1ccnc(-c2ccccc2)c1	0.5	2.19
Cn1c(=O)c2c(-c3cccc(Br)c3)n(-c3ccccc3)cc2n(C)c1=O	-0.65	2.84
CC(C)C[C@H](NC(=O)[C@@H](O)[C@H](N)Cc1ccccc1)C(=O)O	-0.48	1.21&0.94
CC1CSc2ccc(S(=O)(=O)NC3CCCC3)cc2NC1=O (stereo not drawn)	.	0.76
COc1ccc(C2Nc3ccc4ccccc4c3C3=C2C(=O)CC(C)(C)C3)c(OC)c1 (stereo not drawn)	0.34	-0.66
CN1CCN(Cc2c(O)ccc3c(=O)c(-c4ccc(Cl)cc4)c(C(F)(F)F)oc23)CC1	-0.95	2.89
CC(C)CCOc1cccc(C2c3c(-c4ccccc4O)n[nH]c3C(=O)N2CC2CCCO2)c1 (stereo not drawn)	1.22	0.91
Nc1c(C(=O)O)sc2ccccc12	-1	-2.87
O=C(c1ccc(Br)cc1)N1CCc2cc3ccccc3nc21	-3.02	0.87
Cc1c(CNCCCOC(C)C)c(C(=O)O)c(C)n1-c1ccc(Cl)cc1	.	1.56
CN(Cc1ccco1)S(=O)(=O)c1ccc2[nH]c3c(c2c1)CCCC3	.	-4.71
CN(C)CCNC(=O)c1cc2c(s1)-c1ccccc1SC2	0.09	1.52
O=C(CCCn1c(=O)c2cccn2c2cccnc21)NCc1ccco1	.	-1.04
O=C(C1CC1)N1CCc2cc(Br)cc(S(=O)(=O)NCCN3CCCC3)c21	-2.9	.
O=C(C1CCC1)N1CCC(c2ccncc2)CC1	.	1.54
